High-throughput results (PubChem)
PABP polyA inh = blocks human PABP binding to poly(A) RNA. P11940. fluorescence polarization. inhibition, % at 35 µM. 1% of 290,000 active. AID 2014;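 active = 50% or more with normal probe brightness, or confirmed in later tests; inconclusive = above 50% with abnormal brightness, or retests that disagree; inactive = below 50% or failed in later tests; about a fifth of its hits are not listed in these tables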;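 also: calls also rest on retests at 20 µM and on dose response follow-up; controls were probe without protein and protein plus probe with vehicle; some compounds called inactive have numbers as strong as hits; many hits fall short of the cut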
Target sequence (P11940 whole entry, looked up): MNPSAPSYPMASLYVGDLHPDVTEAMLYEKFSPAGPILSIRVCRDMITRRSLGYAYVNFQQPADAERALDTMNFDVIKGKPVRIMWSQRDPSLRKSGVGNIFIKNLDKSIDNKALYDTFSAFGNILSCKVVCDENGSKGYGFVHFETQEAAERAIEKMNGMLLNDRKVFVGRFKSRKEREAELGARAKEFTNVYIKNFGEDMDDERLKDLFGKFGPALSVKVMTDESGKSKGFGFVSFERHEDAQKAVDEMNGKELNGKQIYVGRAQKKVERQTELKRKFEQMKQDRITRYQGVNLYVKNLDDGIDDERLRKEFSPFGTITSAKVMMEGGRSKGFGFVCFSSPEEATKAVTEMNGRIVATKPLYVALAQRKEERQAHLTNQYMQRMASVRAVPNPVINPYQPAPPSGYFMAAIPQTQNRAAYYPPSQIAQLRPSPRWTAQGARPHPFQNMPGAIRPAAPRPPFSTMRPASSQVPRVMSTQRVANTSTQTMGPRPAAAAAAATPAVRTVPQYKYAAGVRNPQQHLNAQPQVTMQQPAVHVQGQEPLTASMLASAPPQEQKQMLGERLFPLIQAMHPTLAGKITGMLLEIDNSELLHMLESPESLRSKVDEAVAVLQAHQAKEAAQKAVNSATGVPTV
CSC inhib = blocks cancer stem cells. cancer stem cell-like cells viability, luminescence. inhibition, % at 7.5 µM. 1.1% of 300,000 active. AID 2717;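 active = mean at 75% or more and at least half the replicates too; inconclusive = mean and replicates disagree; tested in HMLE shEcad cells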;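 also: 0% = median of negative and 100% = median of positive control wells; the first replicate is given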
UUG fidelity = modulators of start codon recognition fidelity in yeast. 0.13% of 350,000 active. S. cerevisiae UUG-firefly luciferase reporter, luminescence/redox ratio. activity score, % at 18.7 µM;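 active = replicate mean at a twofold rise or more, about +100% in these data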;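 also: firefly luciferase made from a UUG start codon reports start codon fidelity; reporter light over untreated wells divided by growth signal over untreated wells; some hits fall short of that in this replicate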
Env fusion inh = HIV envelope-mediated fusion inhibition | HeLa-JRFL Env/CEM21 cell fusion, luciferase | inhibition, % at 12.3 µM | 1.1% of 360,000 active;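 active = mean replicate inhibition score of at least 50 and every replicate individually at or above 50; inconclusive = only one of the two criteria met; inactive = mean below 50 and not all replicates reaching 50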;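 also: 0% = plate neutral controls and 100% = maraviroc near 300 nM; one replicate is shown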
MT1-MMP act inh = MT1-MMP (human) activation inhibition | P50281 | HT1080 RFP-PRO-GFP cells, GFP/RFP ratio fluorescence, overnight; percent of plate control window, DMSO zero | GFP/RFP ratio change, % at 20 µM | 0.061% of 360,000 active | AID 651647;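 active = GFP/RFP ratio change of at least 30% with cell ATP level not reduced by more than half and red fluorescence within 50% of control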; also: strong numbers were not always called active
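Test system: HT1080 cells expressing an RFP-PRO-GFP fluorescent reporter construct / Compound dosing: single-point 20 µM compound, 1% DMSO / Schedule: cells overnight before dosing, compound overnight, 37 °C, 5% CO2 / Evaluation: GFP/RFP fluorescence ratio / Control set: DMSO and RFP-L50D-GFP cell wells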
Rce1 inhib = yeast Ras-converting enzyme inhibition; AID 2563; calls only; yeast membranes, quenched prenylated peptide cleavage fluorescence; Q03530; 0.27% of 290,000 active;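 active = fall in fluorescence gain of 50% or more versus controls, with final raw signal at or below 3038400; inconclusive = same 50% fall but final raw signal above 3038400; inactive = fall in fluorescence gain under 50%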;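 also: plate controls were neutral control wells for no effect and wells lacking membranes for full effect; tested at 10 µM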
Target sequence (Q03530 whole entry, looked up): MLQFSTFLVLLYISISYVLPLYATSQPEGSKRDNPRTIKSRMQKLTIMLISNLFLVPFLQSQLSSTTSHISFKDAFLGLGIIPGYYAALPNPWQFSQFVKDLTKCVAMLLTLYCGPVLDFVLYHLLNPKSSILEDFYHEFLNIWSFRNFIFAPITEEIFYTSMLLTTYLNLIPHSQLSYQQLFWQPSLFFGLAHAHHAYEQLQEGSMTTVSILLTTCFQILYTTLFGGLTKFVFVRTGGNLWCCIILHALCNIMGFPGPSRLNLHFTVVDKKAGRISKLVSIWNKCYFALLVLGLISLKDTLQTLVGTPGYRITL
eIF4H FP inh = inhibitors of RNA binding by human eIF4H. 0.94% of 290,000 active. eIF4H fluorescence polarization binding assay. AID 2012. Q15056. inhibition, % at 35 µM;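 active = 50% or more with normal probe brightness, or confirmed in later tests; inconclusive = above 50% with abnormal brightness, or retests that disagree; inactive = below 50% or failed in later tests; about a fifth of its hits are not listed in these tables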;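 also: calls also rest on retests at 20 µM and on dose response follow-up; 0% = protein and probe with vehicle and 100% = probe without protein; strong numbers were not always called active; many hits fall short of the cut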
PABP polyA inh retest = also measured in PABP polyA inh; calls as there; inhibition, %; compound at 20 µM; confirmation repeats;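 mean of two retest wells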
MT1-MMP act inh RFP = further read-out of MT1-MMP act inh, marked with its call; RFP signal change, %; measured here: RFP expression control read;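 0 = vehicle wells; hits needed this value within 50% of zero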
An asterisk follows results filed as active; i = inactive; u = inconclusive; x = not tested or not shown; + = active, no number. Not all compounds are listed. The share of hits here may be higher or lower than overall.

SMILES	PABP polyA inh	CSC inhib	UUG fidelity	Env fusion inh	MT1-MMP act inh	MT1-MMP act inh RFP	Rce1 inhib	eIF4H FP inh	others
CCCCc1cc(=O)oc2cc(C)cc(OCC(=O)NCCN3CCOCC3)c12	-3.4	-1.2	-17.7	2.9	0.7	1.6	i	-0.9
C[C@H](CO)N1C[C@H](C)[C@@H](CN(C)S(=O)(=O)c2cccs2)Oc2c(NC(=O)Cc3ccccc3)cccc2C1=O	x	3.6	13.4	-137.6	-4.0	1.7	x	x
O=C(Nc1nc2ccc(F)cc2s1)c1cccc(S(=O)(=O)N2CCc3ccccc32)c1	-19.0	60.6	-8.5	20.4	-2.8	-26.0	i	-11.6
NC(=S)N=Nc1c(O)n(Cc2ccccc2)c2ccccc12	5.2	-2.0	-16.7	-94.3	0.9	8.3	i	3.4
CC(=O)Nc1ccc(SCC(=O)NC(=O)c2ccccc2Br)cc1	x	-15.1	-13.6	-9.6	2.6	0.2	x	x
COc1ccc(C(C#N)CCC2OCCO2)cc1OC (configuration not stated)	x	0.2	-13.1	2.2	2.1	6.4	x	x
O=C(CCCn1c(=O)c2sccc2n(CC(=O)NCC2CCCO2)c1=O)NCc1ccco1 (configuration not stated)	5.3	7.3	x	6.1	-9.7	-1.2	i	4.4
N#Cc1cc(C#N)c(SCC(=O)N2CC(=O)Nc3ccccc32)nc1N	x	24.2	-11.6	x	-13.3	-0.9	x	x
Cc1ccc(-n2nnnc2Sc2nc([N+](=O)[O-])nn2C)cc1C	-1.7	9.2	-6.4	x	-1.2	-2.8	i	-0.7
COC(=O)[C@H](C)NC(=O)Nc1cc(OC)ccc1OC	1.5	-5.9	-14.1	-56.8	2.3	2.6	i	-19.6
COCCn1c(Cc2ccccc2)nnc1SCC(=O)Nc1ccccc1	-1.1	2.2	x	-12.1	-1.7	2.9	i	-7.2
NS(=O)(=O)c1ccc(NC(=O)CN2CCCCC2)cc1	0.5	1.4	5.8	-45.8	-0.1	1.2	i	-5.0
Cc1ccccc1SCC(=O)OCC(=O)Nc1ccc(N(C)C)cc1	-5.2	2.3	x	6.0	2.6	7.3	i	-4.3
Cc1nc(NC(=O)/C=C/c2ccc(Cl)cc2Cl)sc1C(=O)N(C)C	-6.0	7.4	x	11.1	0.5	4.5	i	-12.4
N=c1c2c(-c3ccccc3)c(-c3ccccc3)n(Cc3ccccc3)c2ncn1CCCn1ccnc1	-4.3	37.5	-23.4	x	-8.8	-16.9	i	-8.7
COc1ccc2c(c1)CCCO[C@]21O[C@H](CCO)C[C@H](O)[C@H]1O	x	x	-14.9	7.5	-0.9	2.4	x	x
COc1cccc(NC(=O)c2cc(S(=O)(=O)N3CCc4ccccc43)cn2C)c1	-12.6	-6.2	-12.9	36.2	1.4	-6.6	i	2.0
O=C1OC2(CCCC2)OC(=O)C1=Cc1c[nH]c2ccccc12	109.1*	2.3	x	11.6	-0.9	4.7	i	u	PABP polyA inh retest=78.2*
CCOC(=O)CC(NC(=O)Cn1nnc(-c2ccccc2Cl)n1)c1ccc(OC)cc1 (configuration not stated)	-6.9	-7.9	-18.5	9.0	-1.5	-1.1	i	-5.4
COc1ccc(C2C(C(=O)c3ccco3)=C(O)C(=O)N2CCN2CCOCC2)cc1 (configuration not stated)	11.5	x	-2.9	-7.0	1.3	4.1	i	-5.7
COC(=O)C1=C(CN2CCN(C)CC2)NC(=O)NC1c1cc(C)ccc1C (configuration not stated)	-9.8	-13.5	-10.8	x	0.3	6.1	i	3.5
COCCn1c(SCC(=O)NCc2cccs2)nnc1-c1ccc(OC)cc1	-0.2	-2.3	-6.4	x	-2.0	2.6	i	-12.5
CN(CC(=O)Nc1ccccc1Cl)C(=O)CSc1nc2ccccc2s1	-3.3	-6.5	-1.3	-0.1	0.7	-0.8	i	2.9
CC(C)=CC(=O)OCc1cc([N+](=O)[O-])cc2c1OCOC2	20.0	-11.8	x	-19.7	0.2	0.7	i	8.5
CC1CCc2sc(C(=O)NN=C3CCCC3)cc2C1 (configuration not stated)	x	x	-25.3	-15.3	1.2	7.7	x	x

New compounds follow
SMILES	PABP polyA inh	CSC inhib	UUG fidelity	Env fusion inh	MT1-MMP act inh	MT1-MMP act inh RFP	Rce1 inhib	eIF4H FP inh	others
COC(=O)C1CCN(C(=O)NC2CC(=O)N(c3ccc4c(c3)OCCO4)C2)CC1 (configuration not stated)	x	-12.4	-9.9	-5.6	1.5	-0.3	i	x
C=CC[C@@H](CC(=O)N[C@H](CO)Cc1ccccc1)C(=O)N[C@H](C)COC(=O)[C@@H](CC=C)Cc1ccc(F)cc1	x	-14.7	6.5	6.7	-3.7	-11.4	x	x
CCOc1ccc(NC(=O)CCSc2ccc(C)cc2)cc1	-1.0	4.5	x	4.7	-1.3	0.9	+	-9.5
CN(CC(=O)Nc1ccc(S(N)(=O)=O)cc1)C1CCCCC1	-2.8	-8.2	-3.4	-1.8	-0.2	3.2	i	5.0
COc1ccc(Cc2noc(CN3CCN(Cc4cccc(Cl)c4)CC3)n2)cc1OC	7.9	2.2	x	9.4	1.2	-1.3	i	-0.5
c1ccc(-c2nc(Sc3ncnc4c3cnn4-c3ccccc3)n[nH]2)cc1	-12.3	26.0	x	x	x	x	i	0.7
O=C1COc2ccc(C(=O)COC(=O)c3ccccc3F)cc2N1	x	-16.8	-33.6	x	4.8	5.3	x	x
CS(=O)(=O)c1ccc(Cl)c(NC(=O)c2cc(=O)[nH]c3ccc(S(=O)(=O)N4CCOCC4)cc23)c1	x	-3.5	x	-1.0	-0.5	4.0	i	x
Cc1ccc(Nc2c(-c3ccc(C)o3)nc3cnccn23)cc1	16.7	-3.0	-19.5	-35.4	-3.1	0.1	i	2.7
O=C(CN1C(=O)NC2(CCCC2)C1=O)Nc1cc(Cl)ccc1N1CCOCC1	x	-17.5	x	-12.4	1.1	0.7	i	x
COCCn1c(SCC(=O)N2CCCC2)nc2c(c1=O)SCC2	x	x	-7.0	-8.9	1.4	2.0	x	x
CC1(C)CC(=O)c2sc(NS(=O)(=O)c3ccc(Br)cc3)nc2C1	0.1	7.6	x	7.2	4.6	3.4	i	3.5
Cc1cc2c(cc1S(=O)(=O)Nc1cccc(F)c1C)NC(=O)CO2	-12.9	-9.1	-13.7	18.7	0.8	-0.1	i	2.6
Cc1cc(C)c2c(n1)nn1c(N3CCN(c4ccccc4)CC3)cc(C)nc21	6.6	-7.9	-21.9	-0.7	2.7	-0.6	i	-6.6
CCOC(=O)CN1C(=O)CSc2ccc(S(=O)(=O)N3CCCC3)cc21	2.7	-8.6	3.0	4.8	5.0	1.4	i	-2.4
O=C(Nc1ccc(Cl)cc1Cl)NC1CCCC1	-0.5	9.9	x	-3.3	0.7	0.3	i	0.7
CC(=O)c1ccc(OC(=O)c2cccs2)cc1	7.0	7.0	-11.1	-63.1	-0.4	1.0	i	8.2
N#Cc1nc(COc2ccccc2Cl)oc1N1CCCC1	3.7	-0.3	x	0.4	-1.9	1.8	i	-10.6
CC(=O)N1CCN(C(=O)c2oc3ccccc3c2C)CC1	-10.6	1.3	-9.4	11.5	1.7	3.1	i	-1.0
CC(C)(C(N)=O)N1CCN(c2ncc(C(F)(F)F)cc2Cl)CC1	-0.9	-11.9	-6.6	x	-3.0	-19.2	i	-4.8
O=C1COc2ccc(C(=O)CCl)cc2N1	3.2	-5.7	-18.9	-9.5	-1.2	3.3	i	-1.7
COCc1c(C(=O)N/N=C/c2ccc(C)o2)nnn1-c1nonc1N	8.1	x	-10.7	-4.2	2.9	6.9	i	-10.9
Cc1cc(NC(=O)CCC(=O)N(CC(=O)NC2CCCC2)Cc2ccco2)no1	-5.6	-11.4	-17.1	-65.5	-4.1	-1.2	i	-0.7
COc1ccc(S(=O)(=O)N2CCOCC2)cc1NC(=O)c1ccc2c(c1)OCO2	x	1.6	-2.0	12.3	9.4	0.2	x	x
O=C(OCN1C(=O)c2ccccc2C1=O)c1ccccc1	0.9	-8.0	-1.7	-73.6	-1.1	7.1	i	1.6

Quoted at random: 3 compounds from above
SMILES	PABP polyA inh	CSC inhib	UUG fidelity	Env fusion inh	MT1-MMP act inh	MT1-MMP act inh RFP	Rce1 inhib	eIF4H FP inh	others
Cc1cc2c(cc1S(=O)(=O)Nc1cccc(F)c1C)NC(=O)CO2	-12.9	-9.1	-13.7	18.7	0.8	-0.1	i	2.6
O=C(OCN1C(=O)c2ccccc2C1=O)c1ccccc1	0.9	-8.0	-1.7	-73.6	-1.1	7.1	i	1.6
CCOC(=O)CN1C(=O)CSc2ccc(S(=O)(=O)N3CCCC3)cc21	2.7	-8.6	3.0	4.8	5.0	1.4	i	-2.4

Back to the main list; the three compounds before the break are reprinted first.
SMILES	PABP polyA inh	CSC inhib	UUG fidelity	Env fusion inh	MT1-MMP act inh	MT1-MMP act inh RFP	Rce1 inhib	eIF4H FP inh	others
Cc1cc(NC(=O)CCC(=O)N(CC(=O)NC2CCCC2)Cc2ccco2)no1	-5.6	-11.4	-17.1	-65.5	-4.1	-1.2	i	-0.7
COc1ccc(S(=O)(=O)N2CCOCC2)cc1NC(=O)c1ccc2c(c1)OCO2	x	1.6	-2.0	12.3	9.4	0.2	x	x
O=C(OCN1C(=O)c2ccccc2C1=O)c1ccccc1	0.9	-8.0	-1.7	-73.6	-1.1	7.1	i	1.6
O=C(Nc1cccc(F)c1)C1CCCN1S(=O)(=O)c1cccc2cccnc12 (configuration not stated)	15.8	-6.8	-5.2	-11.6	-0.6	-1.2	i	4.0
O=C(NCCc1csc(-c2ccccc2)n1)c1ccccc1F	7.3	4.3	-2.4	7.7	-1.2	-4.1	i	-9.3
Cc1ccc(CN(Cc2ccccc2)C(=S)Nc2ccccc2C)o1	-2.3	5.6	-47.1	9.2	-11.4	-6.8	i	-9.7
CC1(C)S[C@@H]2[C@H](NC(=O)COc3ccccc3)C(=O)N2C1C(=O)OCC1CCCCC1 (some centres not stated)	x	18.0	-7.6	2.7	1.4	1.8	i	x
COc1cc(C(=O)Nc2ccc(N(C)C)cc2)cc(OC)c1OC	-7.2	-2.8	-19.0	x	13.2	6.5	i	-13.5
CCc1ccc(C(=O)Nc2ccc(S(=O)(=O)Nc3nc(C)cc(C)n3)cc2)o1	11.6	-8.3	1.9	x	x	x	i	2.1
O=C(COC(=O)C1CCC1)NCCc1ccc(Cl)cc1Cl	6.7	-4.0	-13.3	-1.2	3.9	6.6	i	2.8
CC(Nc1cc(N2CCN(C(=O)C(C)(C)C)CC2)ccc1[N+](=O)[O-])c1ccccc1 (configuration not stated)	-13.1	31.0	40.4	-0.6	-1.1	-10.7	i	-4.8
O=C(Nc1ccccc1N1CCOCC1)c1cccc(S(=O)(=O)N2CCOCC2)c1	x	20.3	5.7	x	3.2	1.5	x	x
CN(Cc1ccccc1)C(=O)c1ccc(NC(=O)Cc2ccc(NC(=O)C3CCN(C(=O)C4CCCCC4)CC3)cc2)cc1	x	x	8.0	-20.8	-2.0	-11.0	x	x
COCC(C)n1c(C)cc(C(=O)CSc2cc(C)c3ccccc3n2)c1C (configuration not stated)	6.9	21.0	x	16.2	-6.1	-2.6	i	u
O=C(Cc1ccc(Br)cc1)OCC(=O)c1ccc2c(c1)OCCO2	-2.8	2.5	-11.2	x	1.6	2.0	i	10.7
Cn1nc(C(C)(C)C)cc1C(=O)Sc1cccc(Br)c1	-1.4	-1.8	-4.9	4.9	1.9	-7.2	i	-2.3
CCC(=O)Oc1ccc(C(=O)Nc2ccc3c(c2)C(=O)N(C2CCCCC2)C3=O)cc1	11.2	7.0	-14.6	8.5	11.1	1.1	i	-8.6
